KCNQ2 block: KCNQ2 potassium channel inhibitors, primary screen, cell-based, CHO-K1, FluxOR thallium flux, B-score (AID 2156) | 20 min; active compounds read low; only compounds with negative scores are shown here; some inactives read as strong as hits | B-score at 10 µM | 310,000 tested, 1.1% active;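 active means fluorescence ratio B-score at most minus 3 library SDs, with starting brightness B-score within 2 library SDs, cut at about -5.5 in these data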
Target sequence (O88943 whole entry, looked up): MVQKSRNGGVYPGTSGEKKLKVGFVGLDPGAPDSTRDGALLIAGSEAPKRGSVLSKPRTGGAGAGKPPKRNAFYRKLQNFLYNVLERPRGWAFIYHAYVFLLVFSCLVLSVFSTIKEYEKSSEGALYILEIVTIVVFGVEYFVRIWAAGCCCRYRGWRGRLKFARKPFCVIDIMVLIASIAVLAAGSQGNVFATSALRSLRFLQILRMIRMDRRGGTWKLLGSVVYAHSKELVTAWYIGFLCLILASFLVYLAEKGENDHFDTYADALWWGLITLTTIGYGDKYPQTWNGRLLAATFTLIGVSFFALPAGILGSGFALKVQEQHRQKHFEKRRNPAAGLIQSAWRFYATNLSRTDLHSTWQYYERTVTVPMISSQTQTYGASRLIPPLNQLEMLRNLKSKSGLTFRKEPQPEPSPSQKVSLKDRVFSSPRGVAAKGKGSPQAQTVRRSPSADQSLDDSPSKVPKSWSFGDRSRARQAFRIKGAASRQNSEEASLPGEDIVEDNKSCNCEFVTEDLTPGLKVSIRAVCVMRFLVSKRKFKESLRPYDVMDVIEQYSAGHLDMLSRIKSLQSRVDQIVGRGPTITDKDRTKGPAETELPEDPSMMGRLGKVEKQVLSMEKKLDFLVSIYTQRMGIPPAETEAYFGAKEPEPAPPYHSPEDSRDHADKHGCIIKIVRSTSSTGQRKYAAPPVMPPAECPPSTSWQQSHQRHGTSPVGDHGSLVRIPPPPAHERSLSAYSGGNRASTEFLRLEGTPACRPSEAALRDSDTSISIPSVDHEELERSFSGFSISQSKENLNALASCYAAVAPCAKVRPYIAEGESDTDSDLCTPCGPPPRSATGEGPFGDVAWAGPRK
KCNQ2 block baseline: also measured in KCNQ2 block; calls as there; B-score; measured here: initial fluorescence intensity artifact check;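 brightness before thallium and not channel activity; 0 = typical well and far values either way flag optical interference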
* marks the source's active call; other numbers are inactive results; i = inactive. An excerpt (hit frequency here may not be typical).

| mol | KCNQ2 block baseline | KCNQ2 block |
| --- | --- | --- |
| O=C(NCCCn1ccnc1)c1cc([N+](=O)[O-])cc([N+](=O)[O-])c1 | 1.4 | i |
| CC1(C)CC(C(CC(=O)O)c2ccccc2)CCO1 (stereo not given) | 0.55 | i |
| CC(C)CCn1c(Sc2nc3ccccc3s2)nc2c1c(=O)[nH]c(=O)n2C | 0.98 | i |
| CCOc1ccc(S(=O)(=O)c2c(C(=O)c3ccc(C)cc3)cnc3cc4c(cc23)OCCO4)cc1 | 0.53 | i |
| Cc1nc(-c2cccc(S(=O)(=O)N3CCCCC3)c2)cs1 | 1.4 | i |
| CCOc1ccc(-c2cc(N)n(S(=O)(=O)c3ccc(OC)c(OC)c3)n2)cc1 | -2.4 | i |
| CCOC(=O)c1c(CN2CCN(CCO)CC2)n(C)c2cc(Br)c(OC)cc12 | 0.83 | i |
| CCOc1ccc(NC(=S)NC2CC3CCC(C2)N3Cc2ccco2)cc1 (stereo not given) | 2.3 | i |
| Cc1ccnc(OC(C(=O)O)C(OCc2ccccc2)(c2ccccc2)c2ccc(C(F)(F)F)cc2)n1 (stereo not given) | 0.15* | -6.1* |
| CC(SC#N)C(=O)C12CC3CC(CC(C3)C1)C2 (stereo not given) | -1.2 | i |
| N#CC(c1ccccn1)c1ncc(C(F)(F)F)cc1Cl (stereo not given) | 1.1 | i |
| CCc1c(C)nc(N)c(C#N)c1-c1ccccc1 | 0.47 | i |
| CCOC(=O)N1CCC(n2c(=S)[nH]c3cc(OCC)c(OCC)cc3c2=O)CC1 | -0.97 | i |
| Cn1c(=N)n(CC(=O)O)c2ccccc21 | -2 | i |
| Cc1ccccc1OCC(=O)OC1CCN(C)CC1 | -2 | i |
| COc1ccnc(CSC(N)=Nc2cccc(C(F)(F)F)c2)c1 | 0.17 | i |
| COc1ccccc1N1C(=O)CCC1(C#N)c1ccccc1 (stereo not given) | -0.96 | i |
| CCC(C)NC(=O)CSc1nnc(-c2ccc(Cl)cc2)n1N (stereo not given) | -0.36 | i |
| O=c1c2ccccc2nc2n1C(CBr)CN2 (stereo not given) | 1.6 | i |
| CCc1cc2c(=O)c(Oc3ccccc3F)c(C)oc2c(CN(C)C)c1O | -1.6 | i |
| CN(CC(=O)Nc1cccc(F)c1)C(=O)C1CC(=O)N(Cc2ccco2)C1 (stereo not given) | 1.2 | i |
| O=C1CCCCN1CCC(=O)N1CCCC(N2CCN(c3ccccc3)CC2)C1 (stereo not given) | 0.77 | i |
| Cn1c(CNC(=O)CNS(=O)(=O)c2ccc(Br)cc2)cc(=O)n(C)c1=O | -0.01 | i |
| O=C(CCC1CCCNC1)c1ccccc1 (stereo not given) | -1.1 | i |
| Cc1nnc(NC(=O)c2ccc(S(=O)(=O)N3CC(C)OC(C)C3)cc2)o1 (stereo not given) | 0.63 | i |
| CCOC(=O)c1nnc(-c2ccc(C)cc2)nc1Oc1ccc(Cl)cc1Cl | -0.05* | -6* |
| c1ccc(-c2nnc(N3CCN(c4ccccc4)CC3)nc2-c2ccccc2)cc1 | 0.97 | i |
| NS(=O)(=O)c1ccc2nc(NC(=O)CS(=O)(=O)c3ccc(F)cc3)sc2c1 | 0.04 | i |
| COc1cccc(CNS(=O)(=O)c2c(C)[nH]c(C)c2C(=O)N2CCCC2)c1 | -0.55 | i |
| Nc1nc(CN2CCCCCC2)nc(Nc2ccccc2)n1 | 0.36 | i |
| CC1NC2(C(=O)N(Cc3ccccc3)c3ccccc32)C2C(=O)N(c3ccccc3)C(=O)C12 (stereo not given) | -0.03 | i |
| CC(=O)c1cccc(NC(=O)CSc2nc(=O)n(CCCN3CCOCC3)c3c2CCC3)c1 | -0.39 | i |
| CCOC(=O)C(=NCC1CCCO1)NNc1cc(Cl)ccc1Cl (stereo not given) | -0.02 | i |
| Cc1ccc(OCC(=O)NC2CCCC2)c(C)c1 | 0.12 | i |
| CC(=O)Nc1cc(C(=O)OC(C(=O)c2ccccc2)c2ccccc2)ccc1C (stereo not given) | -0.79 | i |
| Cc1ccc(N2C(=O)c3ccc(N)cc3C2=O)cc1C | -0.55 | i |
| CCCN(CCC)S(=O)(=O)c1ccc(C(=O)Nc2nnc(-c3cc(OC)cc(OC)c3)o2)cc1 | 0.04 | i |
| Cc1ccc([C@@H]2C3COCC=C3C(C#N)=C(N)C2(C#N)C#N)o1 (stereo not given in full) | -0.43 | i |
| Cc1cc(NC(=O)c2cc(-c3ccccn3)nc3ccccc23)no1 | 0.01 | i |
| O=C(NCCc1ccccc1)Oc1ccc(Cl)cc1 | -1 | i |
| CCc1ccc(N=C2NC(=O)/C(=C/c3ccc(OCC(=O)O)cc3)S2)cc1 | 0.79 | i |
| COC(=O)[C@@H](NCc1cccc(CN[C@H](C(=O)OC)C(C)C)c1)C(C)C | 0.73 | i |
| CCCCC(c1nnnn1C1CCCC1)N1CCN(C2CCCCC2)CC1 (stereo not given) | -0.14 | i |
| CCc1ccc(-c2cc3c(=O)n(CC(=O)NCc4ccccc4F)ncn3n2)cc1 | 0.77 | i |
| C#CCOCCOCCOCCNc1nc(N2CCN(C(=O)[C@H](CCC(=O)O)n3cc(C(N)Cc4ccc(O)cc4)nn3)CC2)nc(N2CCN(C(=O)[C@H](Cc3cc4ccccc4[nH]3)n3cc(C(N)[C@H](C)CC)nn3)CC2)n1 (stereo not given in full) | 0.96 | i |
| Cc1ccc(OCC(=O)NNC(=O)c2cccnc2)cc1 | 0.5 | i |
| O=C(NC1CCCCC1)C(c1ccccc1)N(Cc1ccc2c(c1)OCO2)C(=O)c1cnsn1 (stereo not given) | -1.2 | i |
| CC(=O)Nc1ccc(/C(C)=N/Nc2nc(N3CCOCC3)nc(N3CCOCC3)n2)cc1 | 0.12 | i |
| COc1cc(C(=O)Sc2ccc(Cl)cc2)cc(OC)c1OC | -0.27 | i |
| COc1ccc(CNC(=O)c2c(O)c3ccccc3n(C)c2=O)cc1 | -0.8 | i |
| CCC(C(=O)N1CCN(c2cccc(Cl)c2)CC1)c1ccccc1 (stereo not given) | -0.09* | -5.6* |
| COc1ccc(C2=CSC3=NCCN23)cc1 | 0.24 | i |
| O=C(Nc1ccc(F)cc1)c1cccc(C(=O)Nc2ccc(F)cc2)c1 | -0.99 | i |
| COc1ccccc1C(=O)N/C(=C/c1ccccc1)C(=O)NC(CCSC)C(=O)O (stereo not given) | -0.45 | i |
| O=C(C[n+]1cc(-c2ccc(F)cc2)n2c1CCC2)Nc1nc(-c2ccc(F)cc2)cs1 | -1.2 | i |
| O=C(Nc1cccc2cccnc12)C1CCCC1 | 1.7 | i |
| CCc1ccccc1OCC(=O)N(CC)CC(=O)NCc1ccc(F)cc1 | 0.16 | i |
| CN1CCN(C(=O)c2ccc(N(Cc3ccccc3Cl)S(C)(=O)=O)cc2)CC1 | 0.42 | i |
| Cc1ccccc1NC(=O)N1CCCC1C(=O)NCc1cccs1 (stereo not given) | 0.89 | i |
| O=C1C=C(c2cccs2)C[C@H](c2ccccc2)[C@H]1n1nnc([N+](=O)[O-])n1 | -0.04 | i |

6 entries from above, with values ahead of the structure:
KCNQ2 block baseline	KCNQ2 block	Structure
-0.55	i	Cc1ccc(N2C(=O)c3ccc(N)cc3C2=O)cc1C
0.04	i	CCCN(CCC)S(=O)(=O)c1ccc(C(=O)Nc2nnc(-c3cc(OC)cc(OC)c3)o2)cc1
-0.43	i	Cc1ccc([C@@H]2C3COCC=C3C(C#N)=C(N)C2(C#N)C#N)o1 (stereo not given in full)
0.01	i	Cc1cc(NC(=O)c2cc(-c3ccccn3)nc3ccccc23)no1
-1	i	O=C(NCCc1ccccc1)Oc1ccc(Cl)cc1
0.79	i	CCc1ccc(N=C2NC(=O)/C(=C/c3ccc(OCC(=O)O)cc3)S2)cc1

The main list resumes, starting three compounds before the break.
| mol | KCNQ2 block baseline | KCNQ2 block |
| --- | --- | --- |
| CN1CCN(C(=O)c2ccc(N(Cc3ccccc3Cl)S(C)(=O)=O)cc2)CC1 | 0.42 | i |
| Cc1ccccc1NC(=O)N1CCCC1C(=O)NCc1cccs1 (stereo not given) | 0.89 | i |
| O=C1C=C(c2cccs2)C[C@H](c2ccccc2)[C@H]1n1nnc([N+](=O)[O-])n1 | -0.04 | i |
| O=C1OC(NCc2cccnc2)(c2ccc(Cl)cc2)c2ccccc21 (stereo not given) | 0.8 | i |
| N#Cc1c(-c2ccccc2)ccn(Cc2cccc(Cl)c2)c1=O | -0.56 | i |
| COc1ccc(Cn2c(-c3ccco3)nc3c(c(=O)c4ccccc4n3C)c2=O)cc1 | 0.63 | i |
| CN(C)c1ccc(CNC2CC(C)(C)NC(C)(C)C2)cc1 | 1.5 | i |
| COc1ccc(N=Cc2c(O)[nH]c3ccccc23)cc1OC | -0.14 | i |
| Cc1cc(S(=O)(=O)N(Cc2ccccc2)Cc2ccc(N(C)C)cc2)ccc1-n1cnnn1 | -0.47 | i |
| CCOC(=O)CCSc1nc(-c2ccc3c(c2)OCO3)cc(C(F)(F)F)c1C#N | 0.36 | i |
| Cc1ccc(-c2nnc(-n3nc(C)cc3C)c3ccccc23)cc1 | 0.93 | i |
| Cc1noc(/C=C/N(C)C)c1S(=O)(=O)N1CCCC(C(=O)NC2CCCCC2)C1 (stereo not given) | 2.2 | i |
| COCCN(C(=S)Nc1c(C)cccc1C)C(C)c1ccco1 (stereo not given) | -0.28 | i |
| CS(=O)(=O)N(CC(=O)N1CCCC1)Cc1ccccc1 | -0.67 | i |
| C=CCNC(=S)N/N=C(\C)c1cccnc1 | -0.38 | i |
| O=C(O)c1ccc(S(=O)(=O)N2CCC3(CC2)CC(=O)c2ccccc2O3)cc1 | -2 | i |
| COc1cc(CN(CCc2c(C)[nH]c3ccc(C)cc23)C(=S)NC(C)(C)C)cc(OC)c1OC | -0.02 | i |
| Cc1cc(/C=C(\C#N)C(=O)OCC(=O)Nc2ccc(OC(F)F)cc2)c(C)n1CC(C)C | -0.31 | i |
| Cc1ccc(-n2nc(C(=O)NN)c(C)c(C#N)c2=O)cc1Cl | -1.1 | i |
| O=C(NCCc1ccco1)C(=O)NCC1OCCCN1S(=O)(=O)c1ccc(Cl)cc1 (stereo not given) | 1.1 | i |
| CC(C)NC(=O)N1CCOCCOCCN(C(=O)NC(C)C)CCOCCOCC1 | -0.91 | i |
| Cc1nn(CC(O)CN2c3ccccc3Sc3ccccc32)c(C)c1Br (stereo not given) | 0.62 | i |
| CCCCOc1c(Cl)cc(C(=O)N(C)CC(=O)Nc2ccc(N3CCOCC3)cc2)cc1OCC | -0.84 | i |
| CCOc1cccc(/C=N/NC(=S)Nc2ccccc2[N+](=O)[O-])c1O | -0.06 | i |
| COc1ccc2oc(C(=O)N(C)CCOc3ccc(Cl)cc3)c(C)c2c1 | 1.7 | i |
| CC(=O)c1cccc(NC(=O)CSc2ccc(-c3ccco3)nn2)c1 | 1.1 | i |
| CC(Oc1ccc(Cl)cc1Cl)C(=O)Nc1ccc(OCC(=O)O)cc1 (stereo not given) | 0.01 | i |
| O=C(NCc1cccnc1)C1CCN(S(=O)(=O)N2CCOCC2)CC1 | -1.3 | i |
| CC(C)N(Cc1nc2ccccc2[nH]1)C(C)C | 1.5 | i |
| C=C(C)C1CC=C(C)/C(=N/NC(=O)CCC(=O)Nc2ccccc2Cl)C1 (stereo not given) | 1.4 | i |
| O=C(c1cn[nH]c1)N1CCc2c([nH]c3ccccc23)C1c1c(F)cccc1Cl (stereo not given) | -0.76 | i |
| CCOC(=O)C1C(=O)Oc2ccc3ccccc3c2C1C1CCOC1=O (stereo not given) | 2.1 | i |
| CCOC(=O)c1[nH]c(CN2CCN(c3ccc(OC)cc3)CC2)c(C(=O)OCC)c1C | -2.1 | i |
| O=C(NNC(=O)c1ccc(Br)cc1)c1ccncc1 | -0.28 | i |
| COC(=O)c1cc2sccc2n1Cc1nc(-c2cccc(Cl)c2)oc1C | -0.45 | i |
| Cc1ccc(S(=O)(=O)N(C)Cc2ccc(C(=O)N/N=C/c3ccc(OC(F)F)cc3)cc2)cc1 | -1.1 | i |
| CN(CCC1CCOCC1)C(=O)C1CCC(=O)N(CCc2cccc(F)c2)C1 (stereo not given) | -1.7 | i |
| Cc1cc(C)cc(NC(=O)C2CCCN(S(=O)(=O)c3cnc[nH]3)C2)c1 (stereo not given) | 0.32 | i |
| CCOC(=O)N1CCC(NC(=O)CS(=O)(=O)Cc2nc(-c3ccccc3C)oc2C)CC1 | -0.64 | i |
| Cc1nc2ccccc2c(=O)n1CCCO | 0.42 | i |
| CC12CCC(C(=O)Nc3ccccc3-n3cccc3)(CC1=O)C2(C)C (stereo not given) | 0.62 | i |
| Nc1c(N2CCOCC2)cc(Cl)c2nonc12 | -0.12 | i |
| O=[N+]([O-])c1ccc(N2CCN(c3ccccc3O)CC2)c(Cl)c1 | 0.84 | i |
| O=C(CCCN1C(=O)C(c2ccccc2)Oc2cccnc21)NCc1ccccc1F (stereo not given) | 0.72 | i |
| c1ccc(-c2noc(CN3CCN(C(c4ccccc4)c4ccccc4)CC3)n2)cc1 | 0.21 | i |
| O=C(c1ccc2c(c1)N(Cc1ccc(F)cc1)C(=O)CS2)N1CCOCC1 | -0.06 | i |
| COc1cc(-c2nnc(COc3ccc4ccccc4c3)o2)cc(OC)c1OC | 0.16 | i |
| COc1cc(/C=N/NC(=O)c2cccc(C(=O)N/N=C/c3ccc(O)c(OC)c3)n2)ccc1O | 0.54 | i |
| COc1ccc(CNC(=O)C(CC(C)C)NC(=O)c2ccccc2C)cc1 (stereo not given) | 0.28 | i |
| NNc1nc2ccccc2c(=O)n1Cc1ccccc1 | -0.05 | i |
| CCOc1cc2c(Cl)ncnc2c(OCC)c1OCC | 0.04 | i |
| O=C(NC1CCc2ccccc21)c1cc(COc2ccc(F)cc2Cl)on1 (stereo not given) | -0.08 | i |
| CCC1CCCCN1C(=O)CSc1nc2ccsc2c(=O)n1Cc1ccccc1 (stereo not given) | -0.3 | i |
| OCCNc1nc2ccccc2[nH]1 | 0.68 | i |
| COc1ccc(C(=O)NC2CCCc3ccccc32)cc1 (stereo not given) | 0.42 | i |
| Cc1c(NS(=O)(=O)c2ccc(Cl)c(C(=O)OC(C)C(=O)N3CCOCC3)c2)c(=O)n(-c2ccccc2)n1C (stereo not given) | -0.78 | i |
